AID504770 = growth inhibitors of E. coli YBA685 in a screen for V. cholerae RctB (chromosome II replication) inhibitors; AID 504770; 0.27% of 130,000 active; E. coli YBA685 rctB-dependent plasmid, OD600 growth, 3 h; hits give low values; z-score (concentration not given with the values);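 active means z-score under -2 on both plates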;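 further: wells of about 30 µL received 100 nL stock; score is relative to mean and SD of the test wells; the first replicate is given; strong numbers were not always called active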
CapD inh = blocks the Bacillus anthracis CapD enzyme. AID 492967. z-score (test concentration not listed). 0.23% of 140,000 active. purified CapD enzyme, fluorescence intensity read-out; hits give low values; some hits fall short of the stated cut;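 active means z-score under -4 in either of two replicates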;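 further: stock transfer was 100 nL into about 40 µL; score is relative to mean and spread of the plate; one replicate is shown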
Active calls of the source: *; nt = not tested or not shown. An excerpt, so the mix of outcomes need not match the whole.

Sequence of screens: CapD inh, AID504770
Cc1c(C(=O)N2CCN(c3ccc(F)cc3)CC2)sc2ncn(CC(=O)N3CC(C)CC(C)C3)c(=O)c12 (stereo not given)
 : -1.3, nt
CC(C)(C)c1cc(O)c(O)c(Br)c1
 : -0.15, 0.1
Cc1c(C#N)c(Sc2ccccc2)nc2ccccc12
 : 0.35, 0.35
CCCN(C(=O)c1c(F)cccc1F)C1CCN(C)CC1
 : -0.39, nt
OCc1nc2cc3ccccc3cc2[nH]1
 : 0.025, -0.3
CCOC(=O)N(c1ccc(OC)cc1)S(=O)(=O)c1ccccc1
 : -2.8, 0.35
COc1cc(O)c(/C=N/NC(=O)CS(=O)(=O)c2ccc(C(F)(F)F)cn2)c(OC)c1
 : -1.1, nt
O=C(O)CCCN1C(=O)c2cccnc2Oc2ccc(Cl)cc21
 : 0.18, -0.25
Cc1cc(C(=O)Cn2ncc(Cl)c(Cl)c2=O)c(C)n1-c1ccc2c(c1)OCCO2
 : nt, 0.7
Cc1cccc(Oc2nc3c4c(C)c(C)oc4ncn3n2)c1
 : -0.81, -0.3
COC(=O)c1cc2oc(C)cc2n1Cc1nc(-c2ccc(C)cc2)oc1C
 : 0.49, -1
Cc1cccc(N2CCN(S(=O)(=O)c3ccc(Cl)nc3)CC2C)c1 (stereo not given)
 : nt, 1.3
COc1ccc2c(c1OC)CN(C)CCc1cc3c(cc1C(O)C2)OCO3 (stereo not given)
 : -0.06, -0.95
Nc1cccc2c1C(=O)N(c1ccccc1)C2=O
 : 8.8, -0.4
CCOc1ccc(S(=O)(=O)/N=C2/C=C(Sc3ncn[nH]3)C(=O)c3ccccc32)cc1
 : -0.87, -0.75
CCCNC(=O)N1CCN(CC)CC1
 : 0.38, -0.8
CCCNC(=O)C(C)n1nc(-c2ccccc2)c2cc(Cl)ccc21 (stereo not given)
 : 1.7, 0.85
CCn1c2ccccc2c2cc(CO)ccc21
 : nt, -0.45
O=C(NNC(=O)c1sccc1-n1cccc1)Nc1cccc(C(F)(F)F)c1
 : -0.74, nt
CC(=O)Nc1ccc(S(=O)(=O)N(C2CC2)C2CCN(Cc3ccccc3)CC2)cc1
 : -0.23, nt
CCOC(=O)C1=C(C)NC(C)=C(C(=O)OC)C1c1cccc([N+](=O)[O-])c1 (stereo not given)
 : 1.9, nt
COc1cccc(NC(=O)CSc2nc3cc(C(=O)NCc4ccco4)ccc3c(=O)n2Cc2ccco2)c1
 : 0.66, nt
CC(=O)[C@@H]1[C@@H](c2ccc3c(c2)OCO3)C(C#N)(C#N)[C@H]2C=Cc3ccccc3N12
 : 3.4, nt
Nc1ccc2nc(SCC(=O)c3ccccc3)sc2c1
 : -0.28, -0.35
CCOC(=O)c1[nH]c(COC(=O)C(NS(=O)(=O)c2ccc(Cl)cc2)C(C)O)c(C(=O)OCC)c1C (stereo not given)
 : nt, -0.2
O=C1CNC(=O)C2(c3ccccc3)CCCN12 (stereo not given)
 : -1, 0.4
Clc1ccccc1-c1csc(-c2ccncc2)n1
 : 2.8, -0.75
OC(CN1CCN(CC(O)Cn2c3ccc(Cl)cc3c3cc(Cl)ccc32)CC1)Cn1c2ccc(Cl)cc2c2cc(Cl)ccc21 (stereo not given)
 : 0.22, nt
c1ccc2c(c1)OCC(c1nn3cnnc3s1)O2 (stereo not given)
 : -0.005, -0.5
Cc1ccc(Sc2ncccc2C(=O)NCc2ccco2)cc1
 : nt, -0.6
O=C(CBr)C12CC3CC(CC(C3)C1)C2
 : -0.29, -0.95
Cc1ccc(C(O)(c2ccc(C)c(C)c2)C2CN3CCC2CC3)cc1C (stereo not given)
 : 0.005, 0.3
Cc1cc(Cl)ccc1NCN1C(=O)CCC1=O
 : -1, nt
O=C(c1ccccc1Cl)c1nccn1Cc1ccc(Cl)cc1
 : -0.43, -0.8
C[N+]1(C)CCc2cc3c(c4c2C1Cc1ccccc1-4)OCO3 (stereo not given)
 : 8.5, nt
CCN1C(=O)/C(=C2/Sc3ccc(OC)cc3N2C)SC1=Nc1cccc(O)c1
 : nt, 1.8
CCN(C(=O)C(C)C)c1ccccc1
 : nt, 0.25
CC(C)(C)NNC(=S)Nc1ccc(Cl)c(Cl)c1
 : 0.18, nt
Nc1ccc(O)c2c1C(=O)c1c(N)ccc(O)c1C2=O
 : -0.35, nt
COc1cccc(NC(=S)Nc2cccc(O)c2)c1
 : -0.62, nt
CCCCN(CCCC)S(=O)(=O)c1cccc2nonc12
 : -0.97, nt
COc1ccc(Nc2nc3ccccc3c3nnc(-c4ccccc4F)n23)cc1
 : 0.33, nt
CCC(C)OC(=O)C1CC=CCC1C(=O)Nc1cccc(Br)c1 (stereo not given)
 : 0.2, -0.3
CCOC(=O)c1sc(=S)n(-c2cc(OC)ccc2OC)c1N
 : -0.73, nt
Cc1cccc(N2CCN(C(=O)CCCN3C(=O)COc4ccc(C)cc43)CC2C)c1 (stereo not given)
 : 0.31, -2
O=C(Cc1cccs1)NCCCc1ccccc1
 : nt, 1.2
O=C(NCCN1CCOCC1)c1nn2c(C(F)(F)F)cc(-c3ccc(Cl)cc3)nc2c1Cl
 : 0.07, nt
CCCCn1c(SCCO)nc2c(c1=O)C1(CCCC1)Cc1ccccc1-2
 : 3, -0.5
S=c1[nH]c2c(Cl)cc(Cl)cc2o1
 : -1.4, 0.25
C=CCn1c(=O)[nH]c2cc(C(=O)N3CC=C(c4ccccc4)CC3)ccc2c1=O
 : 0.33, -0.75
Cc1ccc(-n2nc3c4nonc4ccc3[n+]2[O-])cc1
 : -0.2, 1.1
Cc1ccc2cc(CCNC(=O)Cc3ccccc3)c(=O)[nH]c2c1
 : -0.1, -1.2
COC(=O)c1ccc(NC(=O)c2ccc(C)cc2)cc1
 : 0.26, -0.25
Cc1nc2c(c(C)nn2C)c(C)c1CCC(=O)NCCc1ccccc1
 : 4.4, -0.2
Cc1oc(C(=O)O)cc(=O)c1C
 : -0.22, 0.35
O=C(/C=C/c1ccc(OCc2ccccc2)cc1)N1CCOCC1
 : -0.77, -0.25
CN1C(C(=O)N2CCN(Cc3ccccc3)CC2)=CC(c2ccc(F)cc2)=NS1(=O)=O
 : 1.4, -0.55
Cc1nc(N2CCOCC2)c2sc(=S)n(-c3ccccc3)c2n1
 : -0.56, 0
N#C/C(C(=O)N1CCCCC1)=C1/Nc2ccccc2S1
 : nt, -0.2
COc1ccc(NCC(=O)Nc2ccc(F)cc2)cc1
 : -0.81, 1.5

4 entries from above in a different format.
> C=CCn1c(=O)[nH]c2cc(C(=O)N3CC=C(c4ccccc4)CC3)ccc2c1=O
  CapD inh = 0.33; AID504770 = -0.75

> Cc1ccc(-n2nc3c4nonc4ccc3[n+]2[O-])cc1
  CapD inh = -0.2; AID504770 = 1.1

> Cc1ccc2cc(CCNC(=O)Cc3ccccc3)c(=O)[nH]c2c1
  CapD inh = -0.1; AID504770 = -1.2

> COC(=O)c1ccc(NC(=O)c2ccc(C)cc2)cc1
  CapD inh = 0.26; AID504770 = -0.25

Next part
Sequence of screens: CapD inh, AID504770
O=C(NCc1ccncc1)c1ccc(Cn2cc(C(F)(F)F)ccc2=O)cc1
 : -0.27, nt
O=C(Cn1cc(S(=O)(=O)Cc2ccccc2)c2ccccc21)N1CCCC1
 : 0.095, -0.2
CCC(=O)Nc1ccccc1-c1ccccc1NC(=O)CC
 : 0.09, 0.7
O=c1c(-c2ccccc2)nc(-c2ccccc2)cn1O
 : 3.2, 0
COc1ccc(CNc2ccc(C(=O)N3CCC(C)CC3)cc2S(=O)(=O)Nc2cccc(OC)c2)cc1
 : -0.32, nt
COc1ccc(C2C(C(=O)NCCC3=CCCCC3)c3ccccc3C(=O)N2C)cc1 (stereo not given)
 : -1.2, nt
COc1ccc(-c2nc(SCC(=O)N3CCC(c4ccccc4)=N3)n[nH]2)cc1
 : nt, -0.15
C/C(N)=C(/C#N)C(=O)CSCc1ccccc1C
 : nt, 1.2
O=C(CSc1nn(-c2ccccc2)c(=S)s1)Nc1nccs1
 : -0.55, 1.6
CCOC(=O)N1CCC(NC(=O)Cn2c3ccccc3c(=O)c3cc(Cl)ccc32)CC1
 : 0.35, nt
Cc1ccc(C(=O)N(C)Cc2ccccc2)cc1
 : -1.1, -0.3
O=C(Oc1ccc(N(C(=O)c2ccccc2)S(=O)(=O)c2cccs2)cc1)c1ccccc1
 : 0.34, 0.25
CC(C)(C)NC[C@H](O)COc1cccc2c1CCCC2=O
 : -0.5, nt
CCn1cc(C(=O)OCC(=O)OC2CC(C)CCC2C(C)C)c(=O)c2ccc(C)nc21 (stereo not given)
 : nt, 0.4
O=C(C(c1ccccc1)c1ccccc1)N1CCC(N(C2CC2)S(=O)(=O)c2cccc(C(F)(F)F)c2)CC1
 : -0.52, nt
CC(NC(=O)Cn1c(-c2cccs2)cc2ccccc21)c1ccccc1 (stereo not given)
 : 112, -0.05
COc1ccccc1NC(=O)C1=C(C)NC(SCC(=O)c2ccccc2)=C(C#N)C1c1cccs1 (stereo not given)
 : -0.45, 2.5
COC(=O)C1=C(C)N(c2ccc(OC)c(OC)c2)C(=O)/C1=C\c1cc(C)n(-c2ccc(F)cc2)c1C
 : -0.005, 0
Cc1cccc(C)c1NC(=O)CSc1ccc(C(F)(F)F)cc1[N+](=O)[O-]
 : 0.41, nt
CC(C)(C)C(=O)Nc1nccs1
 : 0.23, -0.05
CC1CCC(C(C)C)/C(=N/NC(=O)CC#N)C1 (stereo not given)
 : 0.45, nt
COCc1nc2ccc(Br)cc2c2c1C(=O)N(NC(=O)C(Cc1ccccc1)NC(C)=O)C2=O (stereo not given)
 : -1.4, nt
CCCNC(=O)c1ccc2c(=O)n3nc(Nc4ccccc4CC)sc3nc2c1
 : 2, 1.4
CCOC(=O)c1ccc(N=Cc2ccc(O)c(OC)c2)cc1
 : -1.1, 1.4
CCOC(=O)C1=C(CC)Nc2ccccc2N=C1NC(=O)c1ccc(=O)n(C)n1
 : nt, -0.45
CCOC(=O)C1(C/C(C)=N/NC(N)=S)CC(C)(C)OC1=O (stereo not given)
 : -0.35, 2
O=c1cc(C2CCN(C(=S)Nc3cccc(Cl)c3)CC2)[nH]n1-c1ccccc1
 : 0.44, 0.4
O=C(NC1CCSC1)c1cccc(Cl)c1 (stereo not given)
 : 0.3, -0.3
N#Cc1c(/N=C/c2cc(Br)ccc2O)sc2c1C1CCN2CC1
 : 2, -1.2
O=C(Nc1cccc(Cl)c1)Nc1ccccn1
 : nt, -0.4
COC(=O)C1=NN(C(=O)c2ccc(Cl)cc2)C(O)(c2ccc(Br)cc2)C1 (stereo not given)
 : -0.24, nt
O=C(CN(C(=O)c1ccc(Cl)nc1)C1CCCC1)NCc1ccc2c(c1)OCO2
 : nt, -0.25
CC1CCN(C(=O)c2ccc3c(=O)nc4c(-c5ccccc5)n[nH]n4c3c2)CC1
 : 14, 0.15
COc1ccc2c3c(ccc2c1)OC(c1ccccc1)(c1ccccc1)C=C3
 : 0.09, nt
COc1ccc(-n2nnc3c(SCC(=O)N4CCc5ccccc54)ncnc32)cc1
 : -1.2, 0.45
c1ccc2c(c1)CC(CN1CCCCC1)O2 (stereo not given)
 : 0.17, -0.15
CCOc1ccc(S(=O)(=O)N(CC)CC(=O)NCc2cccnc2)cc1C
 : nt, -0.35
Nc1ccncc1
 : -0.18, -0.3
O=C(Nc1ccc2c(c1)OCCO2)Nc1cccs1
 : 0.25, -0.6
NS(=O)(=O)c1ccc(NC(=O)CSCc2ccccc2)cc1
 : nt, -2.8
CC(C)n1c(CCC(=O)O)ccc1-c1ccc(F)cc1
 : 1.6, 2
CCC(=O)c1c[nH]c(C(=O)NCc2ccco2)c1
 : -0.065, 1.8
O=C1CCCC/C1=C\Nc1nc(-c2ccccc2)cs1
 : -0.33, -0.1
CC(=O)Nc1ccc(OCC(=O)Nc2cc(F)ccc2C)cc1
 : nt, -0.55
O=C(CCCCN1CCCCC1)c1ccccc1
 : 0.58, -0.2
CC1=C(C(=O)OC2CCCCC2)C(c2coc3ccc(Cl)cc3c2=O)C2=C(CCCC2=O)N1 (stereo not given)
 : -0.54, nt
CCOC(=O)N1CCN(C(=O)CC2C(=O)N(Cc3ccccc3)C(C)c3nc4ccccc4n32)CC1 (stereo not given)
 : -0.4, -1.1
Cc1ccc(S(=O)(=O)N2CCCCCC2)cc1C
 : -0.96, 0.95
CCOC(=O)C1CCN(c2nc(CC(=O)OC)nc3sc4c(c23)CCCC4)CC1
 : 0.005, nt
CC(=O)Nc1ccc(S(=O)(=O)NCC2CC2)cc1
 : -0.53, nt
C=CCN1C(=O)NC(=O)/C(=C/c2ccc(OCc3ccc(Cl)cc3)cc2)C1=O
 : -0.17, nt
CCOC(=O)c1cc(-c2ccc(C#N)cc2)nc2c1c(C)nn2CCC#N
 : nt, -1.1
O=C(Nc1ccc2nc(C3CC3)n(Cc3ccccc3)c(=O)c2c1)C1CC1
 : nt, -0.7
CN1c2ccccc2Oc2nnc(NCc3ccccc3)cc21
 : 36, -1.1
NC(=O)CNC(=O)c1cccc(Cl)c1
 : 0.1, -1.4
CS(=O)(=O)/C(C#N)=C\c1ccc(Cl)s1
 : -0.92, 1.2
Cc1ccc2c(=O)c(CN3CCCC3)c(C)[nH]c2c1C
 : 2.5, 0.3
O=c1oc2ccccc2n1-c1nc2ccccc2o1
 : -0.52, 1.2
CCCn1c(SCc2nc(N)nc(Nc3ccccc3C)n2)nnc1-c1ccncc1
 : nt, -0.1
CC(=O)c1ccc(NC(=O)CSc2nc3ccc(NC(=O)c4cccc(C)c4)cc3s2)cc1
 : 0.12, nt
COc1cc(OC)cc(-c2nc3ccccc3c(=O)n2OC(=O)c2ccccc2Cl)c1
 : -0.5, -0.55

Bioassay records from PubChem BioAssay.
